PrP UTR inh = inhibition of PrP 5' UTR reporter expression; cell-based PrP 5' UTR mRNA reporter, plate reader; inhibition, % (no concentration beside the values); 340,000 compounds, 0.35% hits; AID 488862;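 active = every replicate at 50% or more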;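 note: 0 = median of the neutral control wells; tested in H4 reporter cells; numbers are from one replicate; inactives centre near -14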
Bead autofluor = flagged as autofluorescent in microsphere protease counterscreen | compound autofluorescence counterscreen, microsphere flow cytometry; stronger effect = higher value | fluorescence intensity (test concentration not listed) | 360,000 compounds, 3.1% hits | AID 624483;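 active = at least 3 SD above the mean of all compounds, about 16000 in these data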;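 note: 100 nL of 1 mM stock went into each well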
Mtb hypoxia rep = reduces hypoxia-regulated biosensor signal in M. tuberculosis. M. tuberculosis hypoxia-regulated fluorescent reporter, fluorescence. 300,000 compounds, 0.1% hits. AID 1159583. fluorescence inhibition, % (test concentration not listed);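 active = 35 to 45% if threefold the growth effect, above 45% if 1.5-fold the growth effect; inactive = the rest, general growth blockers included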;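 note: wells of about 50 µL received 100 nL stock; 0% = vehicle wells and 100% = reference inhibitor wells; whole bacteria with a GFP reporter of the hypoxia response; strong numbers were not always called active; many hits fall short of the cut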
ugtP null kill = growth inhibition of S. aureus ugtP deletion strain. S. aureus RN4220 ugtP deletion, OD600 growth, 16 h; some inactives read as strong as hits. 330,000 compounds, 0.54% hits. growth inhibition, % (concentration not given with the values). AID 1259309;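 active = z-score under -3 and OD600 up to 0.15 on both plates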;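 note: plate controls were untreated wells for no effect and antibiotic for full effect; wells of about 80 µL received 100 nL stock; the first replicate is given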
BJeLR viability = kills HRASV12-expressing BJeLR cells; BJeLR (HRASV12) viability, CellTiter-Glo ATP luminescence, 48 h; reference of the scale not given here; inhibition, % (test concentration not listed); 300,000 compounds, 0.17% hits; AID 1554;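 active = replicate mean above 50%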;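 note: 50 nL library stock added to about 25 µL; numbers are from one replicate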
RN4220 kill = kills Staphylococcus aureus RN4220 | 330,000 compounds, 0.33% hits | S. aureus RN4220 growth, OD600, 16 h | inhibition, % (concentration not given with the values);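 active = z-score of -3 or lower and OD600 up to 0.18 on both plates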;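 note: plate controls were untreated cells for no effect and reference antibiotic for full effect; stock transfer was 100 nL into about 80 µL; one replicate is shown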
Mtb hypoxia rep growth = second read-out of Mtb hypoxia rep, no call of its own (marks repeat the call); growth inhibition, %; measured here: M. tuberculosis growth (absorbance);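 0% = vehicle and 100% = reference antibiotic; read after six days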
* = called active by the depositor; · = not tested or not shown.

mol	PrP UTR inh	Bead autofluor	Mtb hypoxia rep	Mtb hypoxia rep growth	ugtP null kill	BJeLR viability	RN4220 kill
CC1CN(C(C)CO)C(=O)c2cc(NC(=O)Cn3cnnn3)ccc2OC1CN(C)Cc1ccc(Cl)c(Cl)c1 (stereo unspecified)	·	·	18	10	1	·	6.6
CCOC(=O)C1CCCN(C(=O)c2ccc3c(c2)N(C)C(=O)/C(=C/c2ccccc2Cl)S3)C1 (stereo unspecified)	-13	4129	4	0	-5	-4	2.5
Cc1ccc(C)c(S(=O)(=O)N2CCCC2CNC(=O)C(=O)NCc2ccccn2)c1 (stereo unspecified)	8	4351	2	-5	12	0	6.7
CCCN(CC(=O)Nc1ccc(OC)c(OC)c1)CC(=O)Nc1ccc(F)c(F)c1F	2	4285	-9	4	0	-4	-6.9
Cc1ccc(N=C2NC(=O)/C(=C/c3cccn3C)S2)cc1	-107	3852	5	4	-7	-4	-0.1
O=C(CC(=NNC(=O)c1ccccc1Br)C(F)(F)F)c1cccs1	·	·	0	-4	9	·	13
COc1cccc(Oc2nc(N)ncc2[N+](=O)[O-])c1	-40	2951	6	0	3	-5	2.6
CN1C(=O)CC(N2CCN(c3ccc(Cl)c(Cl)c3)CC2)C1=O (stereo unspecified)	-22	16251*	15	10	14	1	6.6
COc1ccc(NC(=O)Nc2ccc(Cc3ccncc3)cc2)cc1OC	-11	4051	3	10	2	2	-3.1
CC(=O)Nc1ccc(NC(=O)COc2ncnc3ccccc23)cc1	-20	4275	3	3	11	-5	6.4
Nc1c(Cl)cc(NC(=O)c2ccccc2C(=O)O)cc1Br	-28	2132	8	-5	0	15	2.2
Cc1ccc(C(=O)NC(=O)OCCn2c(C)cnc2[N+](=O)[O-])cc1	-12	3455	-12	-2	-5	5	6.6
CN1CCN(S(=O)(=O)c2cc(C(F)(F)F)ccc2Cl)CC1	-69	4157	16	1	6	-2	3.9
CC(=O)c1ccc(NC(=O)CC2Nc3cccc4cccc(c34)NC2=O)cc1 (stereo unspecified)	-14	4094	8	6	13	5	-1.7
CCOc1ccc(C=Nn2c(C3CCCCC3)n[nH]c2=S)cc1	·	·	3	5	-7	·	-2.4
N[C@@]1(C(=O)O)CCC(C(=O)O)C1 (stereo partly specified)	·	·	5	12	2	·	3.7
COC(=O)C1=NN(c2cccc3ccccc23)C2C(=O)N(c3ccccc3OC)C(=O)C12 (stereo unspecified)	·	·	5	-2	6	0	5.3
Cc1ccc(C)c(NC2=CC(=O)CC(C)(C)C2)c1C#N	8	5022	·	·	7	6	-1.6
CCOC(=O)CN1C(=O)C(Sc2n[nH]c(-c3ccccc3)n2)CCc2ccccc21 (stereo unspecified)	-4	11583	-1	-1	3	2	3.7
O=C(Nc1cccc(Cl)c1)Nc1nc(-c2ccc(Cl)cc2)cs1	-13	2449	23	10	-39	2	-23
COC(=O)Cn1c(=O)c2c(n(Cc3ccccc3)c1=O)N/C(=C/c1ccc(Br)cc1)C2=O	-6	3527	·	·	·	1	·
Cc1ccc(S(=O)(=O)NC2CCCCC2)cc1	-11	5748	-1	0	4	·	3.6
COc1ccc(Cn2c(=O)oc3ccc(C)cc32)cc1OC	-4	22068*	4	20	-9	8	2.1
O=[N+]([O-])c1ccc(CNc2cccc(F)c2)s1	-29	3657	9	-4	-4	9	5.3
Cc1ccc(NC(=O)Cn2c(=O)n(Cc3ccco3)c(=N)c3c4c(sc32)COC(C)(C)C4)cc1	9	3573	·	·	11	1	4.3

Profiles, looked up by structure. Order of screens: PrP UTR inh, Bead autofluor, Mtb hypoxia rep, Mtb hypoxia rep growth, ugtP null kill, BJeLR viability, RN4220 kill
Profile of O=[N+]([O-])c1ccc(CNc2cccc(F)c2)s1 : -29, 3657, 9, -4, -4, 9, 5.3
Profile of Cc1ccc(C(=O)NC(=O)OCCn2c(C)cnc2[N+](=O)[O-])cc1 : -12, 3455, -12, -2, -5, 5, 6.6

Further entries follow:
mol	PrP UTR inh	Bead autofluor	Mtb hypoxia rep	Mtb hypoxia rep growth	ugtP null kill	BJeLR viability	RN4220 kill
COC(=O)[C@@]12CCCCN1[C@H](c1ccc(SC3CCCCC3)cc1)[C@H]1C(=O)N(C)C(=O)[C@H]12	-8	4552	·	·	·	-11	·
Cc1c(NC(=O)Nc2ccc([N+](=O)[O-])cc2)c(=O)n(-c2ccccc2)n1C	-16	4011	-1	4	10	-8	5.9
O=C(CN1C(=O)S/C(=C/c2cccs2)C1=O)N1CCCC1	1	·	1	1	4	·	1.5
O=C(NCc1ccco1)c1nc2nc(-c3cccs3)cc(C(F)(F)F)n2n1	-10	3692	8	10	-10	-9	7.5
COc1ccc(NC(=O)C2CCCN(CCCc3ccccc3)C2)cc1OCC(C)C (stereo unspecified)	-35	3719	5	13	-6	-4	1.4
CNC(=O)CN(c1ccc(OC)cc1)S(=O)(=O)c1ccc(F)cc1	0	4284	-2	6	-8	-2	-0.5
C[C@@H]1[C@H](O)C[C@@]23COC(=O)C2=CCCC3[C@@]1(C)CCC1COC(=O)C1 (stereo partly specified)	-13	4433	·	·	1	·	4.1
C=CCn1c(C)cc(C(=O)CSc2nc3ccccc3o2)c1C	-78	4193	21	11	14	11	5.2
CC1CN(C(C)CO)C(=O)c2cccc(NC(=O)CCC(F)(F)F)c2OC1CN(C)Cc1ccc(Cl)c(Cl)c1 (stereo unspecified)	·	·	3	-4	25	·	-1.6
C/C(=N/Nc1ccnc2cc(Cl)ccc12)c1ccc(O)cc1	-28	3816	·	·	·	8	·
CC(C)c1ccc(/C=C2\Oc3c(ccc(O)c3CN3CCN(C)CC3)C2=O)cc1	-20	2249	17	15	-2	·	4.9
O=C(NNC(=O)c1ccccc1-n1cccc1)c1ccc(Cl)cc1Cl	-12	2148	·	·	9	-10	11
O=C(NCCN1CCOCC1)c1ccc(Cl)c(S(=O)(=O)N2CCOCC2)c1	-10	5880	8	6	1	-5	2.0
CC(=NNC(=O)CCc1ccccc1)c1ccc2c(c1)OCO2	·	·	4	0	9	·	6.5
CCc1ccccc1NCC(=O)Nc1ccc(Cl)c(C(F)(F)F)c1	-12	9864	3	-4	90*	10	83
CC1CCCCC1NC(=S)Nc1ccc(Cl)cc1Cl (stereo unspecified)	-7	4552	-13	2	-8	1	-3.2
Cc1[nH]c2ccccc2c1C(c1ccncc1)N1CCC(C)CC1 (stereo unspecified)	-18	3243	-5	-3	6	8	0.3
Nc1nc(SCC(=O)Nc2cc(-c3ccccc3)nn2-c2ccccc2)n[nH]1	-3	5643	-1	5	-11	-2	0.9
COc1ccc(OCC(=O)N(Cc2ccc(C)o2)C2CCS(=O)(=O)C2)cc1 (stereo unspecified)	3	4008	3	-3	5	1	3.3
O=c1cc(N2CCOCC2)c2ccccc2o1	-13	7997	1	3	12	12	5.2
C=CCOn1c(=O)c(-c2ccc(OC)c(OC)c2)[n+]([O-])c2ccccc21	-24	9309	7	0	-2	-3	3.0
CC(=O)CSc1ncnc2sc3c(c12)CCCC3	-14	4871	12	7	13	7	11
Cc1cccc(NC(=O)C2CCN(S(=O)(=O)c3c(C)noc3/C=C/c3ccco3)CC2)n1	-17	2331	8	0	-3	-2	0.9
O=C(O)COc1c(Cl)cc(C=C2NC(=O)NC2=O)cc1Br	·	·	1	13	-3	·	3.7
CCOc1ccc2ccccc2c1CNc1nnnn1CC	-19	5250	11	7	4	-3	2.1

Continued:
mol	PrP UTR inh	Bead autofluor	Mtb hypoxia rep	Mtb hypoxia rep growth	ugtP null kill	BJeLR viability	RN4220 kill
O=C(NC(Cc1c[nH]c2ccccc12)C(=O)O)/C(=C/c1ccc2c(c1)OCO2)NC(=O)c1ccccc1 (stereo unspecified)	-23	4376	7	-1	5	4	2.2
CCOC(=O)COc1c(Cl)cc(C2NC(=S)NC(c3ccccc3)=C2C(C)=O)cc1OC (stereo unspecified)	-19	2497	13	7	-1	4	3.2
CCCNC(=O)C(Cc1ccccc1)NC(=O)Cc1ccccc1 (stereo unspecified)	1	3868	11	12	3	·	4.7
Fc1ccccc1OCCCCSc1ncccn1	-21	4249	13	8	26	-2	15
C/C(=N\O)C(C)(C)Nc1ccc(F)cc1	-63	4532	·	·	·	-14	·
CC(=O)c1ccc(C#CC(C)(C)O)s1	-29	2653	·	·	-3	12	-0.1
CN(C)/C(Cn1cncn1)=C1/N=C(c2ccccc2)OC1=O	-17	2029	4	6	4	-2	2.0
COc1ccc2cc(C(c3nnnn3C(C)(C)C)N3CCSCC3)c(=O)[nH]c2c1 (stereo unspecified)	-11	12957	-5	-27	-5	-11	-1.3
CC1CCCN(Cc2csc(N)n2)C1 (stereo unspecified)	-14	4627	8	-5	2	1	8.9
COc1ccc(C2C(C#N)=C(C)NC(C)=C2C(=O)OC(C)C)c(OC)c1 (stereo unspecified)	-6	5066	-14	3	-8	5	3.8
CCn1ncc(C(=O)Nc2ccccc2C)c1C	-32	8314	6	7	3	-2	5.4
COCCN=C1Sc2nc3ccc(C)cc3cc2CN1Cc1cccs1	-7	2667	2	-5	23	6	26
COc1ccc(S(=O)(=O)N(C)CC(=O)Nc2ccccc2SC)cc1Cl	1	4342	·	·	0	7	4.1
Cc1ccc(NC(=O)CCN2CCOCC2)cc1C	-16	3575	-2	10	5	-1	5.6
CCOP(=O)(OCC)C(Nc1ccc(C(=O)O)cc1)c1ccccc1 (stereo unspecified)	10	4453	-3	-4	-4	-7	3.4
O=C(COc1ccc(Nc2ccccc2)cc1)OCC(=O)N1CCCCC1	-10	4055	5	-3	2	-13	-4.3
O=C(CCc1ccccc1)NCCc1cccs1	-26	4541	13	22	2	0	8.2
Cc1ccc(-c2cc(C(=O)NCc3ccc4c(c3)OCO4)no2)cc1	-28	8861	-7	4	-9	-3	-6.2
O=C(c1ccc2nc3ccccc3c(=O)n2c1)N1CCN(Cc2ccc3c(c2)OCO3)CC1	-4	9756	6	9	0	-3	0.3
C=C(C(=O)c1ccccc1)C(c1ccccc1)C(C)C(=O)c1ccccc1 (stereo unspecified)	-17	2456	-9	0	16	-9	1.4
Cc1cccc(OCC(=O)NN=C2SCC(=O)N2Cc2ccco2)c1	·	·	7	6	2	·	2.9
CCCCC1(c2ccc(F)cc2)NC(=O)N(CC(=O)Nc2ccc(N3CCOCC3)cc2)C1=O (stereo unspecified)	-7	3827	4	-6	12	·	3.0
CN(Cc1ccccc1)C(=O)COC(=O)c1ccc(S(=O)(=O)N(C)C)cc1	-3	2548	-17	-2	1	0	2.9

Among those listed so far, nine have a thiophene ring, fused or not.
mol	PrP UTR inh	Bead autofluor	Mtb hypoxia rep	Mtb hypoxia rep growth	ugtP null kill	BJeLR viability	RN4220 kill
O=C(CC(=NNC(=O)c1ccccc1Br)C(F)(F)F)c1cccs1	·	·	0	-4	9	·	13
O=[N+]([O-])c1ccc(CNc2cccc(F)c2)s1	-29	3657	9	-4	-4	9	5.3
Cc1ccc(NC(=O)Cn2c(=O)n(Cc3ccco3)c(=N)c3c4c(sc32)COC(C)(C)C4)cc1	9	3573	·	·	11	1	4.3
O=C(CN1C(=O)S/C(=C/c2cccs2)C1=O)N1CCCC1	1	·	1	1	4	·	1.5
O=C(NCc1ccco1)c1nc2nc(-c3cccs3)cc(C(F)(F)F)n2n1	-10	3692	8	10	-10	-9	7.5
CC(=O)CSc1ncnc2sc3c(c12)CCCC3	-14	4871	12	7	13	7	11
CC(=O)c1ccc(C#CC(C)(C)O)s1	-29	2653	·	·	-3	12	-0.1
COCCN=C1Sc2nc3ccc(C)cc3cc2CN1Cc1cccs1	-7	2667	2	-5	23	6	26
O=C(CCc1ccccc1)NCCc1cccs1	-26	4541	13	22	2	0	8.2
